UCH37 DUB inh – blocks the human deubiquitinase UCH37; 330,000 tested, 0.33% active; purified proteasome/UCH37, Ub-AMC cleavage fluorescence; AID 588478; inhibition, % (no concentration beside the values); Q9Y5K5;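 active means mean of two replicates above 20%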;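 further: 0% = compound-free wells with enzyme and 100% = wells lacking proteasome; stock transfer was 100 nL into about 20 µL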
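Material: human UCH37 enzyme supplied as purified proteasome complex / Amount: 0.15 nM proteasome as dispensed / Buffer or medium: pH 7.4 Tris-HCl (50 mM) with ovalbumin, ATP-MgCl2, DTT / Times: preincubation 30 min, reaction 25 min, room temperature / Technique: AMC fluorescence from Ub-AMC cleavage, excitation 355 nm, emission 460 nm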
rRNA inh HTS – inhibits bacterial ribosomal RNA function over humanized ribosomes; E. coli WT GFP vs humanized-ribosome RFP mutants, fluorescence, 24 h; active compounds read low; DMSO median 0, no signal -100; GFP signal change (wild-type ribosome), % (no concentration beside the values); 350,000 tested, 1.6% active; AID 720706;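 active means significant combined selectivity score with lowered wild-type GFP, culture density cut under 30%, mutant RFP and density less affected; inactive means any of these conditions unmet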; further: one replicate is shown; some compounds called inactive have numbers as strong as hits
HNF4A DNA FP – change in binding of human HNF4 alpha to DNA; P41235; HNF4a-FITC DNA binding, fluorescence polarization, 1 h; activity change, % at 10 µM; 360,000 tested, 0.3% active; AID 1224865; in the data active means activity change above about 30%, passing the limit was not always enough;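 further: controls were the assay level and a saturating level of protein; the project sought stronger binding though the title names inhibitors; some compounds called inactive have numbers as strong as hits; positive values seem to mean higher polarization but the record does not say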
Target sequence (P41235 whole entry, looked up): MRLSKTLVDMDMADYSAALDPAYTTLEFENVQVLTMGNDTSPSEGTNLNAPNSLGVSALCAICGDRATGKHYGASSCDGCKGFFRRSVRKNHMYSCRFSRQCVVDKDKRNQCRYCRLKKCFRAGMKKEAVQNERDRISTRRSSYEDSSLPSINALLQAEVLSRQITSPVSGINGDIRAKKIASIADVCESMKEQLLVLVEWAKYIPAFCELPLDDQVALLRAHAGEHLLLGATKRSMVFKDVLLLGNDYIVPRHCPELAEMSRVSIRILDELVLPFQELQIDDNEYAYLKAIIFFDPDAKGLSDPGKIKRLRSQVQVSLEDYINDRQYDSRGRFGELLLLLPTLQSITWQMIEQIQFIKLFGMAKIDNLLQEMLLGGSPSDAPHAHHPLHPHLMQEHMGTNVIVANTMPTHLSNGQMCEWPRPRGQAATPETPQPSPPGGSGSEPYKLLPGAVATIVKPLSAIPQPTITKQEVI
Ecoli growth – E. coli growth inhibition; Escherichia coli growth, OD600, 23 h; active compounds read low; AID 1053175; OD600 absorbance (test concentration not listed); 330,000 tested, 0.21% active;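 active means OD600 absorbance below the run mean of sample wells minus 3.6 SD, in any replicate, cut at about 0.56 in these data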;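 further: stock transfer was 300 nL into about 60 µL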
FGF22 binding – FGF22 (human) thermal shift binding | Q9HCT0 | recombinant FGF22 thermal shift, SYPRO orange fluorescence; percent of sucrose octasulfate shift, DMSO zero | calls only at 9.99 µM | 340,000 tested, 1.5% active | AID 651658;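 active means melting point raised past a set limit in the mean and every replicate; three in four hits are not shown here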
Target sequence (Q9HCT0 whole entry, looked up): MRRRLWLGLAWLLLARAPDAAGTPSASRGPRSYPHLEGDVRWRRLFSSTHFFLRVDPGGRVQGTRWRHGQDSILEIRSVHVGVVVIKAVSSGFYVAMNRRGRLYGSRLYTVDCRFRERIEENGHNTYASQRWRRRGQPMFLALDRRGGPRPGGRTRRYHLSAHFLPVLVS
ALR H2O2 inh – blocks human ALR sulfhydryl oxidase activity; purified ALR, DTT oxidation, H2O2 HRP-luminol luminescence; inhibition, % (test concentration not listed); 290,000 tested, 3.8% active;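 active means mean and each replicate at 75% or more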;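 further: stock transfer was 7.5 nL into about 7.5 µL; 0% = neutral wells and 100% = wells with inactivated enzyme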
Target sequence (P55789 whole entry, looked up): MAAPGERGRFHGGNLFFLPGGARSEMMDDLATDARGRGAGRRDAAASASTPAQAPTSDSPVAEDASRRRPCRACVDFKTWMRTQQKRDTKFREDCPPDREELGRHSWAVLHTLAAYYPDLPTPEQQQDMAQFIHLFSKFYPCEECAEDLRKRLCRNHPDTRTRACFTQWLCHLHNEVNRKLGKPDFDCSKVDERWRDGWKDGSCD
Beta2AR agonist – activates human beta-2 adrenergic receptor causing internalization; P07550; Am2.2-beta2AR cells, FAP receptor internalization, flow cytometry; reference of the scale not given here; response, % (test concentration not listed); 340,000 tested, 0.43% active; AID 504454;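 active means response above a set limit, near 3 SD of response in nonfluorescent compounds, cut at about 42% in these data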;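 further: stock transfer was 100 nL into about 11 µL; a reference agonist was the positive control; negative values mostly stem from fluorescent compounds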
rRNA inh HTS OD600 – recorded beside rRNA inh HTS, whose call it bears; OD600 change, %; measured here: OD600 growth;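 optical density of the mix in the first replicate; 0 = DMSO median and -100 = no signal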
rRNA inh HTS RFP – recorded beside rRNA inh HTS, whose call it bears; RFP signal change, %; measured here: RFP humanized mutant strains;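 first replicate; 0 = DMSO median and -100 = no signal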
* hit, by the source's call; i = inactive; . = not tested or not shown; & = joins results of further samples. The list is partial. The share of hits here may be higher or lower than overall.

structure	UCH37 DUB inh	rRNA inh HTS	rRNA inh HTS OD600	rRNA inh HTS RFP	HNF4A DNA FP	Ecoli growth	FGF22 binding	ALR H2O2 inh	Beta2AR agonist
CSCC[C@H](NC(=O)Cc1ccc(Cl)cc1)C(=O)N1CCC2(CC1)NCCc1[nH]cnc12	0.9	-3	6	-0.1	-4.0	0.66	i	2	-6
Cc1nc2ccc(C(=O)O)cc2nc1C	0.2	.	.	.	-0.9	0.69	.	-5	-3
O=C(Nc1nnc(C2CCCCC2)s1)C1CC(=O)N(c2ccc(F)cc2)C1 (configuration not stated)	5.5	3	13	1.5	1.5	0.69	i	-8	12
Cc1ccc2nc(SCC(=O)Nc3cccc(S(=O)(=O)N(C)C)c3)[nH]c2c1	2.2	.	.	.	-1.0	0.67	.	.	-4
CC(C)C(NC(=O)c1c(F)cccc1F)C(=O)N1CCN(S(=O)(=O)/C=C/c2ccccc2)CC1 (configuration not stated)	2.6	3	1	2.9	-3.5	0.68	i	3	3
C/C=N/N(c1ccccc1)c1ccccc1	.	7	4	-5.0	-2.2	.	i	.	10
COCCCNC(=O)C[C@H]1C[C@H](C(=O)N2CCCCC2)[C@@]2(CCc3ccccc3)c3[nH]c4cc(CCC(=O)N(C)C)ccc4c3CCN2C1=O	0.3	.	.	.	0.5	0.65	.	.	2
O=C(NCCc1ccc(Cl)cc1)C1CCN(C(=O)N2CCOc3ccccc32)CC1	-0.1	-30	-47	0.5	2.8	0.75	i	-4	-16
O=C(CN1CCN(c2ccc(F)cc2)CC1)Nc1cccc(C(F)(F)F)c1	1.7	.	.	.	-1.4	0.66	.	16	4
O=C(Cc1ncc(C(F)(F)F)cc1Cl)NC1CC1	-0.2	18	4	2.7	3.9	0.7	i	-16	-2
COc1ccccc1CNC(=O)COC(=O)c1cc(=O)[nH]c2ccccc12	-16	4	11	-0.3	-2.0	0.61	i	-2	-7
O=C(CN1CCOCC1)NCCNS(=O)(=O)c1ccccc1	4.2	11	10	1.0	-4.2	0.65	i	-2	6
CCC1CCCCN1CCCNC(=O)c1cn(CC)c2ccc(S(=O)(=O)N(C)C3CCCCC3)cc2c1=O (configuration not stated)	3.7	-3	-3	4.3	7.2	0.69	i	0	9
O=C(c1ccccc1)N(Cc1cccnc1)C1(C(=O)Nc2ccccc2)CCCCC1	2.1	.	.	.	-4.1	0.66	.	-5	8
CCCc1cc(=O)n2c(nc3ccccc32)[nH]1	-48	.	.	.	-2.7	0.65	.	-1	68*
COc1ccc(N(C)S(=O)(=O)c2cccc(C(=O)Nc3nc(C)c(C(C)=O)s3)c2)cc1	-6.7	-4	-23	9.1	-0.7	0.67	i	99*	9
Cc1csc(SCc2nc3sc4c(c3c(=O)[nH]2)CCC4)n1	-0.3	.	.	.	1.8	0.67	.	.	-7
CCC(=O)Nc1nnc(SCC(=O)Nc2ccc3c(c2)OCCO3)s1	3.9	-1	1	3.1	-5.1	0.71	i	10	4
Cc1cccc(N(C)S(=O)(=O)c2c(C)noc2C)c1	-1.2	11	12	2.4	1.9	0.67	i	3	1
CC1CN(C(=O)Nc2ccccc2)c2ccccc2-[n+]2ccsc21 (configuration not stated)	1.8	.	.	.	-0.4	0.69	.	.	-4

Exported field by field: part of the list above.
molecule: O=C(Cc1ncc(C(F)(F)F)cc1Cl)NC1CC1
  UCH37 DUB inh = -0.2
  rRNA inh HTS = 18
  rRNA inh HTS OD600 = 4
  rRNA inh HTS RFP = 2.7
  HNF4A DNA FP = 3.9
  Ecoli growth = 0.7
  FGF22 binding = i
  ALR H2O2 inh = -16
  Beta2AR agonist = -2
molecule: COc1ccccc1CNC(=O)COC(=O)c1cc(=O)[nH]c2ccccc12
  UCH37 DUB inh = -16
  rRNA inh HTS = 4
  rRNA inh HTS OD600 = 11
  rRNA inh HTS RFP = -0.3
  HNF4A DNA FP = -2.0
  Ecoli growth = 0.61
  FGF22 binding = i
  ALR H2O2 inh = -2
  Beta2AR agonist = -7
molecule: O=C(CN1CCOCC1)NCCNS(=O)(=O)c1ccccc1
  UCH37 DUB inh = 4.2
  rRNA inh HTS = 11
  rRNA inh HTS OD600 = 10
  rRNA inh HTS RFP = 1.0
  HNF4A DNA FP = -4.2
  Ecoli growth = 0.65
  FGF22 binding = i
  ALR H2O2 inh = -2
  Beta2AR agonist = 6
molecule: CCC1CCCCN1CCCNC(=O)c1cn(CC)c2ccc(S(=O)(=O)N(C)C3CCCCC3)cc2c1=O (configuration not stated)
  UCH37 DUB inh = 3.7
  rRNA inh HTS = -3
  rRNA inh HTS OD600 = -3
  rRNA inh HTS RFP = 4.3
  HNF4A DNA FP = 7.2
  Ecoli growth = 0.69
  FGF22 binding = i
  ALR H2O2 inh = 0
  Beta2AR agonist = 9

Following part.
structure	UCH37 DUB inh	rRNA inh HTS	rRNA inh HTS OD600	rRNA inh HTS RFP	HNF4A DNA FP	Ecoli growth	FGF22 binding	ALR H2O2 inh	Beta2AR agonist
Cc1ccc(-c2nc(NC(=O)c3nn(C)cc3[N+](=O)[O-])sc2C)cc1	4.5	1	1	-1.3	-2.9	0.67	i	-4	104*
COCCN1C(=O)C(=O)/C(=C(/O)c2ccc(C)cc2)C1c1ccccn1 (configuration not stated)	14	17	17	2.3	4.4	0.69	i	-8	3
CSCCC(NS(=O)(=O)c1cccc(C(F)(F)F)c1)C(=O)N(C)Cc1ccc2c(c1)OCCO2 (configuration not stated)	.	-5	-7	-0.9	5.6	.	i	-1	3
CC(C)N1CCN(Cc2ccc3nsnc3c2)CC1CCO (configuration not stated)	3.0	17	8	2.2	-3.4	0.69	i	-5	-2
c1ccc(-n2nc3c(ccc4cnnc43)[nH]2)cc1	-74	.	.	.	-1.8	0.74	.	-9	1
CCC(C)[C@H](NC(=O)C1CC(=O)N(c2ccc3c(c2)OCCO3)C1)C(=O)N1CCCCC1 (some centres not stated)	0.6	14	18	2.5	5.7	0.69	i	-3	0
CCOc1cc(NC(=O)c2ccco2)c(OCC)cc1NC(=O)Cc1cccc(OC)c1	-6.6	.	.	.	4.2	0.73	.	-11	0
CN(C)c1ccc(CNC(=O)c2cc(S(=O)(=O)N3CCCC3)cn2C)cc1	0.2	4	-1	0.2	1.7	0.66	i	98*	33
CCCCCCC/C(C)=N/NC(=O)CC(=O)NCCc1ccccc1	.	.	.	.	-1.1	.	.	12	2
CCCNC(=O)N[C@@H](Cc1ccccc1)C(=O)OC	1.8	.	.	.	-0.5	0.79	.	-1	2
O=C(Nc1cccc(Cl)c1)N1CCOCC1	2.0	-10	-11	-3.4	0.0	0.65	i	9	0
COc1cc(C(=O)NCC(=O)Nc2ccc(F)c(F)c2)ccc1OCC(=O)N1CCOCC1	4.2	0	0	0.9	0.1	0.66	i	0	1
C[C@@H]1CCCCO[C@H](CN(C)Cc2ccc(C(=O)O)cc2)[C@H](C)CN([C@@H](C)CO)C(=O)c2cc(NC(=O)Nc3ccc(C(F)(F)F)cc3)ccc2O1	.	-1&0	-7&-6	-0.6&-3.3	0.1	.	i	.	.
COc1cc2cc(C)c(Br)c(OC)c2cc1OC	3.3	-56	-70	-24	-2.8	0.69	i	.	6
COc1ccc(S(=O)(=O)N2CCOC2CNC(=O)C(=O)NCc2ccccc2Cl)cc1 (configuration not stated)	2.4	9	12	10	1.8	0.69	i	-12	-2
CCN(CC)c1ccc(NC(=O)CN2C(=O)NC3(CCc4ccccc43)C2=O)cc1 (configuration not stated)	2.0	-3	-8	2.2	4.7	0.69	i	.	3
COc1ccc(C(NC(=O)c2ccc(=O)[nH]c2)C(=O)Nc2ccc(C(C)C)cc2)cc1 (configuration not stated)	2.8	-18	-54	19	-0.3	0.65	i	-2	2
CC1CN(C(=O)CCC(=O)NCc2ccc(Cl)cc2)c2ccccc2S1 (configuration not stated)	2.0	-47	-74	-9.2	0.9	0.66	i	-7	2
CC(=O)N1CCc2cc(C(=O)CN3CCCCC3)ccc21	1.7	-1	-1	0.2	-3.2	0.72	i	-2	-3
COC(=O)c1sccc1NC(=S)N1CCN(c2ccccc2F)CC1	1.9	.	.	.	3.2	0.69	.	4	-9

Printed as active in ALR H2O2 inh, of those listed so far:
Compound	UCH37 DUB inh	rRNA inh HTS	rRNA inh HTS OD600	rRNA inh HTS RFP	HNF4A DNA FP	FGF22 binding	ALR H2O2 inh	Beta2AR agonist
COc1ccc(N(C)S(=O)(=O)c2cccc(C(=O)Nc3nc(C)c(C(C)=O)s3)c2)cc1	-6.7	-4	-23	9.1	-0.7	i	99*	9
CN(C)c1ccc(CNC(=O)c2cc(S(=O)(=O)N3CCCC3)cn2C)cc1	0.2	4	-1	0.2	1.7	i	98*	33

The list goes on:
structure	UCH37 DUB inh	rRNA inh HTS	rRNA inh HTS OD600	rRNA inh HTS RFP	HNF4A DNA FP	Ecoli growth	FGF22 binding	ALR H2O2 inh	Beta2AR agonist
CCn1ncc(/C=N/NC(=O)c2cc(Cl)ccc2OC)c1C	.	-3	14	-3.2	-1.6	.	i	-3	-11
O=C(OCc1cccc([N+](=O)[O-])c1)c1cnccn1	4.2	0	8	1.4	-1.1	0.72	i	-4	-1
Fc1ccccc1-c1nc(-c2ccc(Cl)cc2)no1	0.5	.	.	.	0.0	0.71	.	-37	-4
CCOc1ccc(NC(=O)Cn2nnc(C(=O)NCc3ccc4c(c3)OCO4)c2N)cc1	1.6	7	11	-2.1	-0.5	0.7	i	-8	13
O=C(O)CCC(=O)N1CCN(c2nc(-c3ccccc3)c3cc(Br)ccc3n2)CC1	.	-20	-16	4.4	0.2	.	.	.	10
CCc1nc2ccc(C(=O)NCc3ccccc3OC)cn2c1N(C)Cc1ccc(OC)cc1	.	-20	-38	-1.1	2.2	.	i	.	.
COc1ccc(-c2nn(CC(=O)Nc3ccc(Cl)c(Cl)c3)c(=O)c3ccccc23)cc1	0.3	.	.	.	2.0	0.78	.	2	-5
C[C@H](CO)N1C[C@H](C)[C@@H](CN(C)C(=O)Nc2ccccc2)Oc2ccc(NC(=O)C3CCCCC3)cc2C1=O	-4.3	1&-7	1&-5	0.1&-10	2.3	0.76	i	-1	-13
COc1ccc(C(CNC(=O)c2ccc3c(c2)OCCO3)N(C)C)cc1 (configuration not stated)	1.4	8	5	-1.8	-4.0	0.66	i	.	3
O=C(NC1CCCCC1)C(=O)c1c(-c2ccccc2)[nH]c2ccccc12	2.7	3	-3	-0.5	3.0	0.78	i	25	3
O=C(COC(=O)CN1C(=O)NC2(CCCC2)C1=O)Nc1ccc(C(F)(F)F)cc1[N+](=O)[O-]	0.1	1	14	-2.1	-5.1	0.67	i	-6	3
COc1nc(N2CCOCC2)nc(-n2cccc2)n1	-0.8	-1	-2	-0.6	-4.4	0.74	.	1	-5
COC(=O)c1cc(NC(=O)CSc2nc(C)cc(=O)[nH]2)cc(C(=O)OC)c1	1.4	0	3	1.8	1.0	0.66	i	60	2
CC(=O)Nc1ccc(S(=O)(=O)N(Cc2cccnc2)Cc2cc3ccc(C)cc3[nH]c2=O)cc1	-12	-19	-22	-1.3	1.3	0.71	i	-2	8

Screens as filed in PubChem.
